# E coli growth: blocks Escherichia coli growth | OD600, 23 h; stronger effect = lower value | OD600 absorbance (no concentration beside the values) | 0.21% of 330,000 active | AID 1053175;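 active = OD600 absorbance below the run mean of sample wells minus 3.6 SD, in any replicate, cut at about 0.56 in these data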;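 note: stock transfer was 300 nL into about 60 µL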
# Vif A3G: HIV-1 Vif–A3G interaction blockers – biochemical, TR-FRET, GST-Vif 1-94, biotin-A3G peptide, dose response retest, primary screen (AID 1117319) | TR-FRET GST-Vif / biotin-A3G peptide binding; higher % means a stronger effect; test concentration not given here; strong numbers were not always called active | 0.57% of 260,000 active | one-dose inhibition, %; IC50 in µM for titrated hits;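 active = above the screen mean plus three standard deviations and confirmed in dose response; inconclusive = results disagree or hit not tested in dose response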;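 note: Vif residues 1-94 fused to GST binding biotinylated APOBEC3G peptide 110-148; 0% = full assay without inhibitor and 100% = GST in place of GST-Vif; retest series ran down from 100 µM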
# UCH37 inh: human UCH37 deubiquitinating enzyme inhibition; inhibition, % (no concentration beside the values); AID 588478; purified proteasome/UCH37, Ub-AMC cleavage fluorescence; Q9Y5K5; 0.33% of 330,000 active;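 active = mean of two replicates above 20%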;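 note: 0% = compound-free wells with enzyme and 100% = wells lacking proteasome; stock transfer was 100 nL into about 20 µL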
# Target sequence (Q9Y5K5 whole entry, looked up): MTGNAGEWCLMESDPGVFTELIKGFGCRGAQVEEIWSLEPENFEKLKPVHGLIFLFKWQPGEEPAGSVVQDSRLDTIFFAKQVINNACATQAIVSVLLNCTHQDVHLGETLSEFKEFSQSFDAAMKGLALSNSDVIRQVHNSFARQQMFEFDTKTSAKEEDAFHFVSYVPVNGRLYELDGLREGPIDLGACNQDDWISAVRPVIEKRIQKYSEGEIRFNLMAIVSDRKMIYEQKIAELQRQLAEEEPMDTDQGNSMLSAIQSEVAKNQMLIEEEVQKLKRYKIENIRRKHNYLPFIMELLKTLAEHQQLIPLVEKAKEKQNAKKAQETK
#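 Assay system: Proteasome-bound UCH37. Buffer or medium: pH 7.4 Tris-HCl (50 mM) with ovalbumin, ATP-MgCl2, DTT. Incubation: 30 min preincubation with enzyme, 25 min cleavage at room temperature. Measured by: fluorescence, ex 355 nm, em 460 nm. Read-out basis: percent inhibition. Control set: wells without proteasome as full block, compound-free enzyme plus substrate as uninhibited.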
# RanGTP-Imp inh: inhibitors of RanGTP-importin-beta interaction, primary screen, biochemical, FRET, CFP-Ran, YFP-importin-beta, homogeneous. inhibition, % (concentration not given with the values). AID 2216. cell-free CFP-Ran/YFP-importin-beta FRET ratio. 1.1% of 300,000 active;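 active = most replicates above 15%; inconclusive = exactly half above 15%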;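 note: 0% = DMSO wells and 100% = Ran loaded with GDP instead of GTP; wells of about 40 µL received 100 nL stock; the first replicate is given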
# FGF22 binding: binders of recombinant human FGF22 by thermal shift; Q9HCT0; SYPRO orange fluorescence; percent of sucrose octasulfate shift, DMSO zero; calls only at 9.99 µM; 1.5% of 340,000 active; AID 651658;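 active = melting point raised past a set limit in the mean and every replicate; inconclusive = no clear call; three in four hits are not shown here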
# Target sequence (Q9HCT0 whole entry, looked up): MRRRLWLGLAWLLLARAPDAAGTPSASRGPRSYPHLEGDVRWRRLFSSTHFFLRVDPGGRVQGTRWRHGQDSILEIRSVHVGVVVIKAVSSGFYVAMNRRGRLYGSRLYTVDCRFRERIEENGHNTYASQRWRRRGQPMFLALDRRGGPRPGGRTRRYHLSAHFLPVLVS
# AF4-AF9 inh: MLL-AF4/AF9 protein interaction inhibition. P42568. AlphaScreen, biotin-AF4 peptide binding to FLAG-AF9. inhibition, % at 10 µM. 0.47% of 350,000 active;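 active = every replicate reaching a set inhibition limit, whatever the replicate mean, cut at about 25% in these data; inconclusive = mean inhibition reaches that limit but some replicates miss it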;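 note: 0% = plate neutral control median and 100% = total signal loss; the record names both 10 and 1 µM as test concentration; the first replicate is given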
# HNF4A DNA FP: change in binding of human HNF4 alpha to DNA | activity change, % at 10 µM | AID 1224865 | HNF4a-FITC DNA binding, fluorescence polarization, 1 h | 0.3% of 360,000 active | P41235; in the data active = activity change above about 30%, passing the limit was not always enough;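 note: controls were the assay level and a saturating level of protein; the project sought stronger binding though the title names inhibitors; some compounds called inactive have numbers as strong as hits; positive values seem to mean higher polarization but the record does not say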
# Target sequence (P41235 whole entry, looked up): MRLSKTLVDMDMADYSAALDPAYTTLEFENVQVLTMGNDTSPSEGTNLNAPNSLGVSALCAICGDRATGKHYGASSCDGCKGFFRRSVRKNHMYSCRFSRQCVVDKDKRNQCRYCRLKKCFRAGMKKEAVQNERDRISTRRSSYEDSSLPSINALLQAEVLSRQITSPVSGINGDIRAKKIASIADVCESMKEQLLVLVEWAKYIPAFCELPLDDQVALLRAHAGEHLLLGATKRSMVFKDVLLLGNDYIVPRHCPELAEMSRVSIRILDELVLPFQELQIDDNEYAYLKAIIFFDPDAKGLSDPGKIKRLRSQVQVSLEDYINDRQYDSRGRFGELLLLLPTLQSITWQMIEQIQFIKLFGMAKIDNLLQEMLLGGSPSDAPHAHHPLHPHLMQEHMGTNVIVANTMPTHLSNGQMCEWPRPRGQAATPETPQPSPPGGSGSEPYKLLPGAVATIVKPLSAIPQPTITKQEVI
# Numbers without * were called inactive; i = inactive; ? = inconclusive; . = no result given; & = joins results of further samples. The list is partial; count on the stated rates, not on these rows.
SMILES,E coli growth,Vif A3G,UCH37 inh,RanGTP-Imp inh,FGF22 binding,AF4-AF9 inh,HNF4A DNA FP
CN(CC(=O)Nc1cccc(F)c1)C(=O)C1CC(=O)N(Cc2ccccc2)C1 (stereo not drawn),0.72,17%,-0.3,0.2,i,-0.6,3.1
CC1=C(C(=O)N(C(C)C)C(C)C)CC(CC(=O)NCCCN(C)C)C(=O)N1Cc1ccc(F)cc1 (stereo not drawn),.,.,.,.,i,-1.8,5.7
O=C(NN1CCN(Cc2ccccc2Cl)CC1)c1ccc(Cl)cc1,0.72,3%,2.2,-2.6,.,.,-3.3
CC(=O)Nc1ccc(S(=O)(=O)NC2CC(=O)N(c3ccc(C)cc3)C2)cc1 (stereo not drawn),0.65,-2%,3.4,0.7,i,-17,-4.6
COCCCNC(=O)Nc1ccc2c(c1)N(C)C(=O)CS2,0.74,?,-0.6,-4.5,.,.,0.4
O=C(NCCc1c[nH]c2ccccc12)c1c(Cl)nc2sccn12,0.73,6%,-1.9,3.3,.,.,-0.3
CC(Oc1ccccc1)C(=O)NNS(=O)(=O)c1ccc([N+](=O)[O-])cc1 (stereo not drawn),0.63,.,2.9,2.6,i,-0.9,-1.3
CC(C)(C)NC(=O)C1Cc2ccccc2CN1C(=O)Nc1ccccc1Cl (stereo not drawn),0.72,-1%,5.0,9.8,.,.,2.7
C#CCOCCOCCOCCNc1nc(N2CCOCC2)nc(N2CCN(C(=O)[C@H](Cc3cc4ccccc4[nH]3)n3cc([C@@H](N)C(C)CC)nn3)CC2)n1 (stereo partly drawn),.,.,6.3,-3.1,i,9.6,1.2
O=C(Nc1nnc([C@@H]2C[C@H](O)[C@@H](CO)O2)s1)c1c(F)cccc1F,.,.,.,.,i,-0.4,0.1
C[C@H](CO)N1C[C@H](C)[C@@H](CN(C)Cc2ccc(Oc3ccccc3)cc2)Oc2cc(Br)ccc2S1(=O)=O,.,3%,.,.,i,-1.8&-0.3,1.4
OCCN(CC#CCC(O)(c1ccccc1)C1CCCC1)CCO (stereo not drawn),0.62,.,-0.6,1.2,i,-1.2,-0.2
C=CCN(C(=O)CCS(=O)(=O)c1cccc2nsnc12)c1ccccc1,0.71,-10%,4.7,-4.3,i,-2.0,-2.6
COc1ccc(Cn2c(=O)[nH]c3cc(C(=O)Nc4ccc(N5CCN(C)CC5)cc4)ccc32)cc1,0.68,6%,4.9,1.8,.,.,0.1
CCOC(=O)N1CCC(NC(=O)CCC(=O)N2CCOc3ccc(Cl)cc32)CC1,0.65,-8%,-0.9,0.9,i,-0.2,5.1

# As a short view, five of the compounds above.
SMILES,E coli growth,Vif A3G,UCH37 inh,RanGTP-Imp inh,FGF22 binding,AF4-AF9 inh,HNF4A DNA FP
CN(CC(=O)Nc1cccc(F)c1)C(=O)C1CC(=O)N(Cc2ccccc2)C1 (stereo not drawn),0.72,17%,-0.3,0.2,i,-0.6,3.1
CC1=C(C(=O)N(C(C)C)C(C)C)CC(CC(=O)NCCCN(C)C)C(=O)N1Cc1ccc(F)cc1 (stereo not drawn),.,.,.,.,i,-1.8,5.7
O=C(NN1CCN(Cc2ccccc2Cl)CC1)c1ccc(Cl)cc1,0.72,3%,2.2,-2.6,.,.,-3.3
CC(=O)Nc1ccc(S(=O)(=O)NC2CC(=O)N(c3ccc(C)cc3)C2)cc1 (stereo not drawn),0.65,-2%,3.4,0.7,i,-17,-4.6
COCCCNC(=O)Nc1ccc2c(c1)N(C)C(=O)CS2,0.74,?,-0.6,-4.5,.,.,0.4

# Next part
SMILES,E coli growth,Vif A3G,UCH37 inh,RanGTP-Imp inh,FGF22 binding,AF4-AF9 inh,HNF4A DNA FP
O=C(c1cc2nc(-c3ccco3)cc(C(F)(F)F)n2n1)N1CCN(c2ccc(F)cc2)CC1,0.72,13%,-0.9,.,i,14,2.7
COc1ccc(N2CC(C(=O)NCc3n[nH]c(=O)c4ccccc34)CC2=O)cc1 (stereo not drawn),0.69,17%,2.0,2.6,i,3.0,1.6
Cn1c(CNc2ccc(Cl)cc2)nnc1SCc1ccccc1,0.66,-5%,0.9,3.2,.,.,-2.1
Cc1ccc(NC(=S)NCC(C)C)cc1,0.69,.,0.7,-0.5,.,.,-0.8
COc1c(C(CC(C)C)OC(C)=O)ccc2c1C(=O)OCc1cc(C)cc(O)c1O2 (stereo not drawn),0.72,.,5.9,4.7,i,4.7,-6.3
COc1cc(/C=N/n2nnnc2N)ccc1OCC#N,.,.,.,6.1,i,1.0,1.3
COc1ccc(Cl)cc1C(=O)O/N=C(\N)c1ccc(Cl)cc1,0.66,-7%,0.8,-0.5,.,.,2.7
CCc1sc(C(=O)NNC(=O)CNC(=O)c2ccccc2F)cc1C,0.63,11%,1.7,.,i,0.6,-0.8
COc1ccc(CCNC(=O)C(=O)NCc2ccccc2C)cc1OC,0.73,-3%,1.2,-0.7,i,0.1,-2.0
CCCCNC(=O)c1nc(C2CCNCC2)oc1-c1cccc(C(F)(F)F)c1,.,.,.,.,i,2.6,-17
COc1ccccc1NC(=O)N1CCCC1C(=O)NCc1ccc(F)cc1 (stereo not drawn),0.69,1%,0.1,4.9,.,.,-3.1
Cc1cc(C(=O)COC(=O)c2n[nH]c(=O)c3ccccc23)c(C)n1C,0.72,3%,0.7,.,i,-0.8,-1.1
Cc1ccc(N(CC(=O)NCc2ccco2)C(=O)CCC(=O)Nc2nccs2)cc1,0.74,2%,3.9,-0.4,i,-7.0,0.2
CC(C)CC(=O)NC(=S)Nc1cc(C(=O)O)ccc1Cl,0.68,-5%,0.1,-0.3,.,.,0.9
CSCCC(NC(=O)C1CCC(C)CC1)C(=O)OCC(=O)c1ccc(Cl)cc1 (stereo not drawn),0.65,-1%,1.6,-5.6,i,2.2,5.0
CN1CCC(N(C)C(=O)/C(C#N)=C/c2ccc(OC(F)F)cc2)CC1,0.64,.,0.4,8.6,i,.,-3.6
COc1ccc(CCNC(=O)CCC(=O)N2CCN(S(=O)(=O)c3ccccc3)CC2)cc1OC,0.72,15%&-7%,0.8,2.7,.,.,-0.6
Cc1ccc(S(=O)(=O)N2CCC(=O)N(C(COCc3cccc(C)c3)C(C)C)CC2)cc1 (stereo not drawn),0.68,21%,0.8,0.3,.,.,-1.2
Cn1cc(Br)c(-c2cccc(NC(=O)CCCC(=O)O)c2)n1,0.7,?,3.1,-0.1,i,-1.0,-0.2
COc1ccccc1C(=O)NCCc1nc2ccccc2n1C,0.7,-6%,0.4,?,.,.,1.0
COC(=O)c1sc2ccccc2c1NC(=O)c1ccc(S(=O)(=O)N2CCC(C)CC2)cc1,0.72,12%,-5.4,-1.7,i,3.3,-1.1
Cc1ccc(Cc2c(-c3ccc(C#N)cc3)nc3ccc(Br)cn23)cc1,.,-7%,.,.,i,3.4,0.1
O=C(c1ccc(Cl)cc1)c1ccc(CN2C(=O)c3ccccc3C2=O)o1,0.7,-6%,1.6,-0.8,.,.,2.4
CCCCNC(=O)C1=C(N)C(C(=O)Nc2ccc(C)c(S(=O)(=O)N3CCCCC3)c2)SC1=Nc1ccc(C)cc1C (stereo not drawn),0.66,8%,-1.0,-5.2,.,.,2.5
CC(=O)N(C)c1nc(-c2ccc(Cl)cc2)cs1,0.64,6%,-0.1,3.4,.,.,-1.6
Cc1cc(C(=O)NCc2ccccc2Br)no1,0.75,22%,1.8,?,i,6.6,3.9
O=C(/C=C/c1ccccc1)c1ccc2c(c1)OCO2,0.61,-6%,7.9,1.2,i,2.3,1.7
CCN(CC)C(C(=O)Nc1ccc2c(c1)OCO2)c1ccccc1 (stereo not drawn),0.71,-19%,4.0,-6.0,.,.,3.1
Cc1ccc(-c2nc3cc(Cl)ccc3o2)cc1,0.76,26%,-6.2,1.4,.,.,-1.4
CCOCCCNC(=O)c1oc2ccc(S(=O)(=O)N3CCOCC3)cc2c1C,0.71,.,4.1,-2.4,i,-0.5,-2.1

# Entries above with a cyano group:
SMILES,E coli growth,Vif A3G,UCH37 inh,RanGTP-Imp inh,FGF22 binding,AF4-AF9 inh,HNF4A DNA FP
COc1cc(/C=N/n2nnnc2N)ccc1OCC#N,.,.,.,6.1,i,1.0,1.3
CN1CCC(N(C)C(=O)/C(C#N)=C/c2ccc(OC(F)F)cc2)CC1,0.64,.,0.4,8.6,i,.,-3.6
Cc1ccc(Cc2c(-c3ccc(C#N)cc3)nc3ccc(Br)cn23)cc1,.,-7%,.,.,i,3.4,0.1

# The list continues:
SMILES,E coli growth,Vif A3G,UCH37 inh,RanGTP-Imp inh,FGF22 binding,AF4-AF9 inh,HNF4A DNA FP
CC(C)C(C)NC(=O)COc1ccc(-c2ccccc2)cc1 (stereo not drawn),0.71,-5%,3.9,1.8,.,.,-5.1
COc1ccc(CN2CCNC(=O)C2CC(=O)NCc2cnn(C)c2)cc1OC (stereo not drawn),0.72,-4%,-2.3,?,i,-2.0,5.3
Cc1ccccc1NC(=O)COC(=O)c1ccc2c(c1)OCCO2,0.64,-5%,2.0,.,.,0.5,-4.0
Cc1nc(SCC(=O)NCC2CCCO2)c2c3c(sc2n1)CCC3 (stereo not drawn),0.69,.,1.0,-1.2,i,-1.6,0.5
CCN1C(=O)[C@H]2[C@@H](c3ccc(Cl)cc3)N3C(=O)CN(CC4CC4)C(=O)[C@@]3(C)[C@H]2C1=O,0.75,.,-8.2,3.8,i,.,0.0
COc1ccccc1N1CCN(S(=O)(=O)CCNC(=O)C2CC(=O)N(c3ccccc3)C2)CC1 (stereo not drawn),0.7,-7%,0.2,?,i,0.3,0.7
COc1ccc(C(=O)NC(=S)NCc2ccccc2)cc1OC,0.64,7%,1.5,-0.2,i,2.4,-0.7
CN(C)S(=O)(=O)c1ccc(C(=O)NNC(=O)C23CC4CC(CC(C4)C2)C3)cc1,0.69,.,6.0,.,i,-0.7,1.7
COCCn1c(SCC(=O)Nc2cc(C)on2)nc2ccccc21,0.65,5%,5.8,0.2,i,-1.7,4.5
O=C(O)c1ccc(N2C(=O)/C(=C\c3ccccc3)N=C2c2ccccc2)cc1,0.67,.,11,-0.3,i,4.3,-5.6
COc1cc(C)ccc1OCCOCCN(C)Cc1ccccc1,0.64,.,-1.0,3.1,.,.,-0.6
Cc1ccc(NC(=O)N2C(=O)C3(OCCO3)c3ccccc32)cc1,0.78,-2%,0.7,2.0,.,.,-2.4
Cc1c(OCC(=O)N2CCC(C(N)=O)CC2)ccc2c3c(c(=O)oc12)CCCC3,0.73,.,-59,-3.6,i,-4.9,2.6
CCOC(=O)C1=C(c2ccccc2)NC(SC)=C(C#N)C1c1cccnc1 (stereo not drawn),0.7,-2%,4.3,-4.0,i,1.0,1.7
O=C(Nc1ccc(S(=O)(=O)N2CCOCC2)cc1)c1cc(S(=O)(=O)N2CCOCC2)ccc1Cl,0.67,-4%,5.1,-0.9,i,3.3,3.6
CCOC(=O)N(C)C[C@H]1OCc2cnnn2CCCC(=O)N([C@H](C)CO)C[C@H]1C,.,-7%,.,.,i,-0.5&0.2&-0.1,0.1
Clc1ccc(SCc2cc(-c3ccccc3)no2)cc1,0.72,1%,2.7,2.4,.,.,0.4
O=C1c2ccccc2C(=O)N1CCSc1n[nH]c(=S)s1,0.73,0%,1.6,2.9,.,.,0.1
COc1ccc(Cn2nnnc2C(c2cc(OC)ccc2OC)N2CCC(C(N)=O)CC2)cc1 (stereo not drawn),0.78,-2%&-8%,-0.5,?,.,.,12
Oc1ccc(O)c(C=NNC(=S)NC2CC3CC2C2C=CCC32)c1 (stereo not drawn),.,3%,.,.,i,35*,0.0
O=C(CN(CC1CCCO1)C(=O)CNS(=O)(=O)c1ccc(F)cc1)NCc1ccc(F)cc1 (stereo not drawn),0.65,-4%,-1.4,-3.9,i,-0.5,1.5
C[C@H]1CN(S(=O)C(C)(C)C)[C@H](CCO)/C1=C\c1ccccc1 (stereo partly drawn),0.68,-1%,0.5,.,i,0.2,0.5

# Screening data from PubChem BioAssay.
